Screening results from PubChem.
VDR inh: Inhibitors of the vitamin D receptor (VDR): qHTS; 0.93% of 400,000 active; AID 504847, 2011; VDR-SRC2-3 peptide fluorescence polarization, 2 h; Potency, µM, for the others: max response, negative = inhibition, actives largely listed as inhibitors; active = well fitted inhibition curve with a large enough effect; inconclusive = small, poorly fitted or top-dose-only effect, or another doubt; inactive = no such curve, though single readings can be large or run the other way; also: series mostly up to about 120 µM
Target sequence (P11473 whole entry, looked up): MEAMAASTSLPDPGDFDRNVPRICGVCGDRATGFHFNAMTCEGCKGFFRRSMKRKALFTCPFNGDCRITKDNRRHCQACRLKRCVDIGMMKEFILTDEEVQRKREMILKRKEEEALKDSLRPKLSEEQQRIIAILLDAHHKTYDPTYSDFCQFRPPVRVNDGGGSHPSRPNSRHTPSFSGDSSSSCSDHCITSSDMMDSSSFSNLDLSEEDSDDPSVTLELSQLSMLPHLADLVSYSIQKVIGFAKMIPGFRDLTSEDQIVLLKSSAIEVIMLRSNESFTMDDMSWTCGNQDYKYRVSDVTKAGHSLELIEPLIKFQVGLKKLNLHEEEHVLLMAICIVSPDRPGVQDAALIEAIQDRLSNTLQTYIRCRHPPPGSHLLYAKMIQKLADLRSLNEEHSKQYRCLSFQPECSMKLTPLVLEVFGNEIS
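Inhibition of the VDR/SRC2-3 peptide interaction is quantified by fluorescence polarization. Compounds (23 nl, pintool) incubate with the reagents for 2 hours at ambient room temperature.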
Starred values were filed as active, the others as inactive; & = joins results of further samples. % is scaled to controls: 0 for no effect and ±100 for the full control effect; potency is read from the fitted curve at half-maximal effect.

For O=C1C=C(N2CCN(c3ccccn3)CC2)C(=O)c2c(O)ccc(O)c21 the results were VDR inh -11.4%.
Screening Cc1ccc(C(C)C)c(OCC(=O)OCC(=O)c2c(N)n(C)c(=O)n(C)c2=O)c1 returned VDR inh 2.0%.
Screening CCN(CC)CC(=O)NN=C(c1ccccc1)c1ccccc1 returned VDR inh -2.9%.
`Cc1nc2ccc(S(=O)(=O)NCC(=O)Nc3ccc(F)cc3)cc2s1` gave VDR inh -3.3%.
`CC(CN1CCNCC1)(NS(=O)(=O)c1ccccc1)c1ccccc1` (centres undefined) gave VDR inh 4.4%.
O=C(COc1ccccc1[N+](=O)[O-])OCC(=O)c1ccc(Br)s1 was read as VDR inh -0.8%.
For Cc1ccc(/C=N/Nc2ncc(Cl)cc2Cl)s1 the results were VDR inh -4.1%.
For CCOC(=O)c1ccc(COC(=O)c2ccc3c(c2)-c2ccccc2C3=O)cc1 the results were VDR inh inconclusive.
`Cc1ccc(N(C)S(=O)(=O)c2ccc(-c3ccc(=O)[nH]n3)s2)cc1C` gave VDR inh 3.8%.
`COc1ccc(C2=NO[C@@H]3C(=O)N(C4CCCCC4)C(=O)[C@H]23)cc1OC` gave VDR inh -13.3%.
`COc1ccc(CC2(C)OC(c3ccc(Cl)cc3)=NN2C(C)=O)cc1` (centres undefined) gave VDR inh 3.5%.
For COc1cccc(-c2nc(Cc3ccc(OC)c(OC)c3)no2)c1 the results were VDR inh 6.3%.
`COc1ccc(OC)c(S(=O)(=O)N2Cc3ccccc3CC2C(=O)Nc2ccc(C(C)=O)cc2)c1` (centres undefined) gave VDR inh 9.4%.
CCNc1nc(NCC)nc(N/N=C/c2ccc([N+](=O)[O-])o2)n1 was read as VDR inh -5.1%.
Screening COc1cccc(C=CC(=O)C=CC=Cc2ccccc2)c1 returned VDR inh inconclusive.
For CCOc1ccc(NC(=O)c2sc3nc4c(c(-c5ccccc5)c3c2N)C(=O)CC(C)(C)C4)cc1 the results were VDR inh 2.3%.
`CCCCNC(=O)[C@@H]1CCCN1S(=O)(=O)c1cccc2cccnc12` gave VDR inh -5.2%.
Screening COc1cc(OC)c(-c2nn3c(-c4cc(C)[nH]n4)nnc3s2)cc1OC returned VDR inh inconclusive.
For CCC(C)NC(=O)Cc1cn(C)c2ccccc12 (centres undefined) the results were VDR inh -6.7%.
O=C(O)c1ccc(NC(=S)NC2CCCCC2)cc1 was read as VDR inh -7.7%.
O=C1OC(c2ccccc2)/C(=C(/O)c2ccc(Cl)cc2)C1=O (centres undefined) was read as VDR inh 44.7µM*.
COc1ccc(Oc2nc(C)cc(C)c2C#N)cc1 was read as VDR inh 7.7%.
Screening COc1ccccc1N(C(=O)c1ccncc1)c1nc(-c2ccc([N+](=O)[O-])cc2)cs1 returned VDR inh -8.5%.
For Cc1nn(CC(=O)N2CCN(c3ccccn3)CC2)c(=O)c2cc3sccc3n12 the results were VDR inh -3.9%.
COCCNc1ccnc(-c2cccc(NS(C)(=O)=O)c2)n1 was read as VDR inh 1.3%.
`NS(=O)(=O)c1ccc(NS(=O)(=O)c2ccc(NC(=O)C3CC3)cc2)cc1` gave VDR inh 2.9%.
C=CCOC(=O)C1=C(C)OC(N)=C(C#N)C1c1ccc(F)cc1 (centres undefined) was read as VDR inh -6.0%.
For CC(=O)SC1CC2=CC(=O)CC[C@@]2(C)C2CC[C@@]3(C)[C@@H](CC[C@@]34CCC(=O)O4)C12 (some centres undefined) the results were VDR inh -6.0%.
`Cc1ccc(S(=O)(=O)N(CC(=O)N=Nc2c(O)[nH]c3ccccc23)c2cccc(C)c2)cc1` gave VDR inh 4.5%.
`O=C(CCc1nc(-c2ccccc2)c(-c2ccccc2)o1)OCc1ccc(Cl)cc1` gave VDR inh -9.2%.
Screening Cc1cccc(-n2ncc3c2CCCC3NC(=O)CN2CCCC2=O)c1C (centres undefined) returned VDR inh -8.0%.
`CC(C)(C)c1ccc(/C=N/N2CCN(c3ccccn3)CC2)cc1` gave VDR inh -1.8%.
CCn1c(SCC(=O)Nc2ccc(C)cc2)nc(O)cc1=O was read as VDR inh 0.0%.
For COc1ccc(Nc2nc3ccccc3nc2NS(=O)(=O)c2cccs2)c(OC)c1 the results were VDR inh -13.7%.
O=C(CNC(=O)c1ccc(Cl)cc1Cl)OCCCn1c(=O)[nH]c2ccccc21 was read as VDR inh -19.7%.
`C/C(CC(=O)Nc1cccc(C(F)(F)F)c1)=N/NC(=O)C(=O)NCCO` gave VDR inh 12.0%.
Screening CC(C)Sc1nc(N2CCOCC2)c2c(c1C#N)CC(C)(C)N(C)C2 returned VDR inh inconclusive.
`O=C1CCCN1CCCNC(=S)Nc1ccc(Nc2ccccc2)cc1` gave VDR inh -9.9%.
Screening CCCN1C2CCCC1CC(NC(=S)Nc1cccc(C)c1)C2 (centres undefined) returned VDR inh -18.9%.
For C=C[C@@]1(C)CC(=O)[C@]2(O)[C@@]3(C)[C@H](O)CCC(C)(C)[C@@H]3[C@H](O)[C@H](OC(C)=O)[C@@]2(C)O1 the results were VDR inh 10.3%.
COc1ccc(CNS(=O)(=O)c2cc(OCC(N)=O)c(C)cc2Cl)cc1 was read as VDR inh 13.9%.
`COc1ccc(CC(=O)c2c(O)cc(O)cc2O)cc1OC` gave VDR inh -3.2%.
`CS(=O)(=O)c1ccccc1C(=O)Nc1ccc2sccc2c1` gave VDR inh 7.3%.
For Cc1ccc(NC(=O)C(=O)NCC(c2cccnc2)N2CCN(Cc3ccccc3)CC2)cc1F (centres undefined) the results were VDR inh 13.3%.
Screening CC1CCN(C(=O)COC(=O)c2ccc(Br)o2)CC1 returned VDR inh 12.1%.
Screening CC(C)(C)NC(=O)NC(=O)COC(=O)c1ccc(OC(F)F)cc1 returned VDR inh -4.2%.
COc1ccc(-n2nc(C(=O)NCC(=O)N3CCN(c4cccc(Cl)c4)CC3)c3ccccc3c2=O)c(OC)c1 was read as VDR inh 6.4%.
`CCNC(=S)N/N=C/c1ccc(OCC(=O)Nc2ccc(C)cc2)cc1` gave VDR inh -1.8%.
For Oc1ccc(Br)cc1/C=N/N1CCCCC1 the results were VDR inh -15.8%.
`Cc1ccc(NC(=O)CSCC(=O)Nc2ccccc2N2CCCCC2)cc1` gave VDR inh 5.4%.
`Cc1nn(CCCC(=O)Nc2cccnc2Cl)c(C)c1[N+](=O)[O-]` gave VDR inh -2.2%.
For CCC1(c2ccccc2)C(=O)NCNC1=O the results were VDR inh 8.1%&7.2%&1.7%.
Screening COc1ccccc1CN1C(=O)c2cccc3cccc(c23)C1=O returned VDR inh -4.3%.
Screening CNC(=O)c1ccc(N(Cc2ccccc2)S(C)(=O)=O)cc1 returned VDR inh -10.9%.
`CC(Sc1nn(-c2ccccc2)c(=S)s1)C(=O)NCC1CCCO1` (centres undefined) gave VDR inh -11.5%.
For COc1cccc(NC(=O)/C(C#N)=C\c2cn(Cc3ccc(Cl)cc3)c3ccccc23)c1 the results were VDR inh -9.4%.
Cc1ccc(C(=O)OCC(=O)Nc2c(Cl)cc(S(N)(=O)=O)cc2Cl)o1 was read as VDR inh 0.5%.
CC1=C(C(N)=O)C(c2cccc(Br)c2)n2nc(SCc3ccccc3Cl)nc2N1 (centres undefined) was read as VDR inh -1.3%.
`O=C(NC(Cc1ccccc1)C(=O)O)/C(=C/c1ccccc1)NC(=O)c1ccco1` (centres undefined) gave VDR inh 11.1%.
`CCOC(=O)C1CCCN(C(=O)c2ccc3c(c2)OCCO3)C1` (centres undefined) gave VDR inh -6.3%.

4 compounds out of the list, arranged by heavy-atom count, smallest number first:
For Cc1ccc(/C=N/Nc2ncc(Cl)cc2Cl)s1 the results were VDR inh -4.1%.
CCNc1nc(NCC)nc(N/N=C/c2ccc([N+](=O)[O-])o2)n1 was read as VDR inh -5.1%.
`CC(C)(C)c1ccc(/C=N/N2CCN(c3ccccn3)CC2)cc1` gave VDR inh -1.8%.
For C=C[C@@]1(C)CC(=O)[C@]2(O)[C@@]3(C)[C@H](O)CCC(C)(C)[C@@H]3[C@H](O)[C@H](OC(C)=O)[C@@]2(C)O1 the results were VDR inh 10.3%.

The list continues.
Screening O=C(c1ccc2c(=O)n(Cc3ccccc3)c(=S)[nH]c2c1)N1CCOCC1 returned VDR inh 9.1%.
Screening CN(C(=O)c1cc2n(n1)C(C(F)(F)F)CC(c1ccco1)N2)c1ccc(OC(F)(F)F)cc1 (centres undefined) returned VDR inh -14.3%.
For Cc1ccc2c(c1)c1c(c(=O)n(Cc3ccccc3)c(=O)n1CC(=O)Nc1ccccc1C)n2C the results were VDR inh 13.2%.
Screening CCOc1ccc2nc(SCC(=O)NNC(=O)c3ccco3)c(C)cc2c1 returned VDR inh 1.2%.
O=C(OC(C(=O)NCC1CCCO1)c1ccc(F)cc1)c1ccco1 (centres undefined) was read as VDR inh 2.3%.
For CC(C)(C)OC(=O)N1CCC(c2c(C(=O)Nc3ccc4c(c3)OCCO4)cnn2-c2ccc(F)cc2)CC1 the results were VDR inh 2.2%.
For COC(=O)CCN(C(=O)C12CC3CC(CC(C3)C1)C2)c1ccccn1 the results were VDR inh -7.3%.
COc1ccc(OC)c(N(CC(=O)NC2CC2)S(=O)(=O)c2ccc(C)cc2)c1 was read as VDR inh 3.7%.
`COCCNC(=O)c1ccc2c(c1)N(Cc1cc(C)ccc1C)C(=O)c1ccccc1S2(=O)=O` gave VDR inh -12.2%.
Screening CN(C)/C=C(/C(=O)c1ccc(Cl)c(Cl)c1)S(C)(=O)=O returned VDR inh 8.9%.
For C=CCN1C(=O)c2ccc(C(=O)N(C)Cc3ccc(C)o3)cc2C1=O the results were VDR inh -10.5%.
O=C(CCC1CCCN(C(=O)c2cccs2)C1)N1CCN(c2ccccn2)CC1 (centres undefined) was read as VDR inh -2.2%.

Gathered by group, the entries above with a cyano group.
COc1ccc(Oc2nc(C)cc(C)c2C#N)cc1 was read as VDR inh 7.7%.
C=CCOC(=O)C1=C(C)OC(N)=C(C#N)C1c1ccc(F)cc1 (centres undefined) was read as VDR inh -6.0%.
Screening CC(C)Sc1nc(N2CCOCC2)c2c(c1C#N)CC(C)(C)N(C)C2 returned VDR inh inconclusive.
For COc1cccc(NC(=O)/C(C#N)=C\c2cn(Cc3ccc(Cl)cc3)c3ccccc23)c1 the results were VDR inh -9.4%.

Later entries.
Screening CC(C)CC(C(=O)Nc1ccccc1)N1C(=O)C2C3C=CC(C3)C2C1=O (centres undefined) returned VDR inh -5.1%.
Screening CN(C)S(=O)(=O)c1cccc(NC(=S)N/N=C/c2ccc(O)c(O)c2O)c1 returned VDR inh 89.1µM*.
O=C(NCc1ccccc1)c1ccc(F)c(S(=O)(=O)N2CCOCC2)c1 was read as VDR inh 13.2%.
`CCOC(=O)c1c(C)nc2c(c1C)/C(=N/O)CC(C)(C)C2` gave VDR inh -2.2%.
`COc1ccccc1N1CCN(c2ccc(=O)n(CC(=O)Nc3ccc(F)c(F)c3)n2)CC1` gave VDR inh 3.4%.
For CCCc1nnc(NC(=O)CCS(=O)(=O)c2ccccc2)s1 the results were VDR inh -4.9%.
Screening COc1cc([N+](=O)[O-])ccc1NC(=O)Cc1ccc(F)cc1 returned VDR inh 1.8%.
`Cc1ccc(Cl)cc1N1CCN(C(=O)Cn2c(-c3cccs3)cc3cc(F)ccc32)CC1` gave VDR inh 18.1%.
Screening Oc1cncc(-c2cccnc2)c1 returned VDR inh 0.0%.
Screening O=c1cc(CN2CCN(c3cccc(C(F)(F)F)c3)CC2)nc2sccn12 returned VDR inh -4.1%.
Screening COc1ccc(CCN2C(=O)CC(Cc3ccc(C)cc3)C2=O)cc1OC (centres undefined) returned VDR inh inconclusive.
For CCC(=O)N1CCN(c2ccc(Cl)cc2NC(=O)c2ccc(N3CCCC3)c([N+](=O)[O-])c2)CC1 the results were VDR inh -17.0%.
For O=C(NCCc1ccccc1)C1CCCN1C(=O)NCc1ccccc1 (centres undefined) the results were VDR inh 11.7%.
`CCCn1c(=N)n(CC(=O)c2ccc([N+](=O)[O-])cc2)c2ccccc21` gave VDR inh -3.8%.
`CCOc1ccc(NC(=O)CN(c2ccc(CC)cc2)S(=O)(=O)c2c(C)noc2C)cc1` gave VDR inh -1.7%.
Screening Cc1ccc(Cl)cc1N1CCN(C(=O)c2ccccc2SCC(=O)N2CCCC2)CC1 returned VDR inh 3.2%.
For COc1ccc(CCC(=O)NCCOc2ccccc2Cl)cc1 the results were VDR inh 16.3%.
`Cc1nc(SCC(=O)Nc2ccccc2)c2oc3ccccc3c2n1` gave VDR inh 11.9%.
`Cc1nnsc1C(=O)NNc1c(Cl)cccc1Cl` gave VDR inh 4.7%.
`CCOC(=O)c1c(C)c(C(=O)NCCCOC(C)C)c(C)n1C` gave VDR inh -1.5%.
COc1ccc(-c2oc3ncn4nc(COc5ccc(Cl)cc5)nc4c3c2-c2ccc(OC)cc2)cc1 was read as VDR inh -1.3%.
COc1ccc(Nc2oc(COc3ccc(C)cc3)nc2C#N)cc1 was read as VDR inh 11.2%.
COc1cccc(CC(=O)NC2CCCN(Cc3ccc(Cl)cc3)C2)c1 (centres undefined) was read as VDR inh -2.6%.
`COc1ccc2c(Cl)c(C(=O)NCCCn3ccnc3)sc2c1Cl` gave VDR inh -1.5%.

Only part of the results is shown; rates above refer to the full screens.
